High-throughput results: PubChem, ICCB-Longwood Screening Facility, Harvard Medical School
AID504770 – E. coli YBA685 growth inhibition, screen for V. cholerae RctB inhibitors | z-score (concentration not given with the values) | E. coli YBA685 rctB-dependent plasmid, OD600 growth, 3 h; hits give low values | AID 504770 | 130,000 compounds, 0.27% hits;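 active = z-score under -2 on both plates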;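 also: wells of about 30 µL received 100 nL stock; score is relative to mean and SD of the test wells; the first replicate is given; strong numbers were not always called active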
Ba CapD inh – inhibitors of Bacillus anthracis CapD enzyme | z-score (test concentration not listed) | purified CapD enzyme, fluorescence intensity read-out; hits give low values; some hits fall short of the stated cut | 140,000 compounds, 0.23% hits;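 active = z-score under -4 in either of two replicates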;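 also: stock transfer was 100 nL into about 40 µL; score is relative to mean and spread of the plate; one replicate is shown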
* marks the source's active call; other numbers are inactive results; nt = no result given. A portion of the library; count on the stated rates, not on these rows.

canonical_smiles	AID504770	Ba CapD inh
CCC(C)NC(=O)c1cc(-c2cccc(OC)c2)no1 (centres undefined)	-0.65	-0.605
CCS(=O)(=O)NCC(c1ccc(N(C)C)cc1)N1CCc2ccccc21 (centres undefined)	-0.85	-1.5
CC(Oc1ccc(/C=C(/C#N)C(=O)N2CCOCC2)cc1)C(=O)O (centres undefined)	-0.9	nt
Cc1nc(SCC(=O)c2ccc(Br)cc2)c(C#N)c(C)c1C	nt	-0.405
O=S(=O)(c1ccc(Cl)cc1)N1CCC(c2nc3ccccc3s2)CC1	nt	-0.48
COc1ccccc1CC(=O)NCC1OCCc2ccccc21 (centres undefined)	-0.05	-0.42
Cc1cc(OCc2ccc(/C=C(/C#N)S(=O)(=O)c3ccccc3)o2)ccc1Cl	-0.1	-0.26
Cc1cc(C(F)(F)F)nn1CC(N)=O	-0.75	-0.66
Brc1cccc(CN2CCN(Cc3cccc(Br)c3)CC2)c1	-0.25	2.21
Cc1ccccc1-c1nc(-c2ccc(NC(=O)c3cccnc3)cc2)no1	-0.7	-0.07
CCC(=O)c1c(C)oc2ncnc(Nc3ccc(CCO)cc3)c12	-0.95	-0.06
O=C(COCC(=O)N1CCCC1)N1CCCC1	0.2	nt
CCn1c(C)cc(/C=C2/NC(=O)N(c3ccccc3)C2=O)c1C	0.8	2.71
FC(F)(F)c1cnc(N2CCN(c3nc(CCl)cs3)CC2)c(Cl)c1	nt	0.565
COc1ccc(CN(C(=O)Nc2ccccc2)C2CC2)cc1	-0.1	nt
O=C(Nc1ccc2c(c1)OCO2)c1cc(-c2ccccc2)nc2ccccc12	nt	-0.52
Cc1nn(-c2ccccc2)c2nc(-c3ccccc3)cc(C(=O)N3CCOCC3)c12	-1.2	nt
CCSC1=C(C#N)C(c2ccccc2OC)C(C#N)C(=O)N1 (centres undefined)	-0.85	0.075
Cc1nn(-c2ccccc2)c2c1N(C(=O)CCC(=O)NC1CCCCCC1)CCS2	0.1	-0.09
CCOC(=O)C1C(=O)C=C(c2ccc(C)cc2)CC1c1ccc(CC)cc1 (centres undefined)	-0.4	-2.13

Next compounds follow.
canonical_smiles	AID504770	Ba CapD inh
CCOC(=O)C1=C(N)OC2=C(C(=O)CC(C)(C)C2)C1c1ccc(Cl)c(Cl)c1 (centres undefined)	nt	-0.24
On1c(-c2cccc(F)c2)nc2c1CCc1nonc1-2	-1.2	-0.51
Cc1ccc(OCC(=O)N2CCCc3ccccc32)cc1	0.15	0.6
O=C1NCCN=C(c2ccccc2)c2ccccc21	nt	0.41
O=C(NC1CC1)c1cnn(-c2ccc(Cl)cc2)c1C(F)(F)F	0.1	-0.075
O=C(OCC1COc2ccccc2O1)c1ccc(Br)cc1 (centres undefined)	0.15	-0.315
Cc1ccccc1N(C)C(=O)Cn1ncc2c1-c1ccccc1OC2	-0.55	-1.1
COc1ccccc1NC(=S)C(C#N)C(=O)N1CCCC1 (centres undefined)	nt	-1.62
Cc1c(Cl)cccc1NCC(=O)N1CC2(C)CC1CC(C)(C)C2 (centres undefined)	-0.55	-0.025
CC1CN(CC(=O)NN=C(c2ccccc2)c2ccccc2)CC(C)O1 (centres undefined)	nt	-0.49
Cc1c(Br)c(C(F)(F)F)nn1CC(=O)Nc1ccccc1C(F)(F)F	nt	-0.38
Fc1ccc2nc(Nc3nnc(-c4ccco4)o3)sc2c1	-0.05	-0.955
Cc1ccc2oc(=O)c3cnn(CC(=O)N4CCCCC4)c3c2c1	-1.35	0.06
CC1(C)CN(C(=S)Nc2cccc(Cl)c2)C1=O	-0.5	-0.26
Cc1cc(/C=C(/C#N)c2ccc(F)cc2)c(C)n1Cc1ccccc1	1.05	-0.045
O=C(c1ccccc1)C1CCN(C(=O)c2ccco2)CC1	-1.05	-0.315
O=C(Nc1ccc(Cl)cn1)c1cccc(S(=O)(=O)N2CCCCCC2)c1	0.25	0.145
O=C(c1ccc(-n2nc(C(F)(F)F)c3c2-c2ccoc2CC3)cc1)N1CCc2ccccc21	0.85	-0.195
COC(=O)C1=CN(CC2CCCO2)C=C(C(=O)OC)C1c1ccc(OC)c(OCc2ccccc2)c1 (centres undefined)	nt	10.1
CC(C)C(NCc1c(Cl)cccc1Cl)C(=O)O (centres undefined)	1.6	-0.08

(listing goes on)
canonical_smiles	AID504770	Ba CapD inh
Cc1sc2ncnc(SCC(=O)c3ccc(Br)cc3)c2c1C	nt	-0.705
CCOC(=O)c1cc(C#N)c(C)nc1N1CCN(C(=O)OCC2CCCCN2Cc2cc3c(cc2Cl)OCO3)CC1 (centres undefined)	nt	1.21
Cc1ccccc1NC(=O)Nc1sc(=S)n(C)c1C	-0.6	1.15
O=C1CSC(=O)N1CC(O)COc1ccc(OCC(O)CN2C(=O)CSC2=O)cc1 (centres undefined)	-0.2	-0.58
O=C(Nc1ccc(-n2cc(-c3cnccn3)cn2)cc1)c1ccco1	nt	1.26
c1ccc(Sc2c(-c3ccccc3)nc3sccn23)cc1	nt	-0.06
COC(=O)CSc1nsc(SCC(=O)OC)c1C#N	-1.25	-0.395
CC(C)CC(NC(=O)C1CCCCC1)C(=O)NC1CCC(C)CC1 (centres undefined)	0	-0.275
CCCCCCC(C)OC(=O)c1ccc(-c2ccc(-c3ccc(C(=O)OC(C)CCCCCC)cc3)cc2)cc1 (centres undefined)	nt	8.79
CCOC(=O)c1csc(-c2cccnc2)n1	-0.05	-0.85
COc1cccc2c(=O)n(CC(=O)Nc3ccccc3)ccc12	2.5	2.6
CCOc1ccc2nc(/N=C/c3ccccc3O)sc2c1	-1.05	-1.06
Cc1cc(OCCCC(=O)NC2=NCCS2)ccc1Cl	-0.4	nt
COc1ccc(C(=O)OCC(=O)c2cc(OC)ccc2OC)cc1	-0.1	nt
Cc1c(CCC(=O)O)c(=O)oc2cc3oc4c(c3cc12)CCCC4	0.05	5.66
CCOC(=O)C1C2CCC(C2)N1S(C)(=O)=O (centres undefined)	-1.1	nt
Clc1cccc(OCc2ncn(-c3cccc(Cl)n3)n2)c1	-1.5	-0.31
O=S(=O)(Nc1ccccc1Oc1ccc(Cl)cc1Cl)c1ccc(Cl)cc1	nt	0.085
O=C(N1CCCC1)N1c2ccccc2Sc2ccccc21	0.9	nt
CC(=O)Oc1ccc2c(c1)CCC1C2=CCC2(C)C(OC(C)=O)CCC12 (centres undefined)	nt	0.41

More entries.
canonical_smiles	AID504770	Ba CapD inh
CCOc1ccc(S(=O)(=O)NCc2ccncc2)cc1C(C)C	-0.6	nt
Cc1ccc(-c2csc(C(C#N)=C3CCC(c4ccccc4)CC3)n2)cc1 (centres undefined)	nt	-0.24
COC(=O)c1ccccc1NC(=O)c1ccc(N2CC3CC(C2)c2cccc(=O)n2C3)c(NC(=O)c2ccc(F)cc2)c1 (centres undefined)	nt	1.32
O=C(C1CCC1)N(c1nccs1)C1CCCCC1	0.1	nt
CCS(=O)(=O)Nc1ccc(C(=O)N(C)Cc2ccccc2)cc1	0.2	0.21
O=C1C=CC(=O)N1c1ccc(-c2cnc(-c3ccc(N4C(=O)C=CC4=O)cc3)nc2)cc1	-0.75	nt
COC(=O)c1c(N)sc(Cc2ccccc2)c1C	0.15	0.025
COc1cc(C2NCCS2)cc(OC)c1OC (centres undefined)	-0.6	0.27
CC1(C)CC(=O)C2=C(C1)OC1=C(C(=O)CC(C)(C)C1)C2c1cccc(Br)c1	nt	-0.23
N/C(=N/c1nc2ccccc2o1)NC(=O)C(Cc1ccccc1)N1C(=O)c2ccccc2C1=O (centres undefined)	0	nt
Cc1cccc(NC2=NC(=S)N(c3ccccc3Cl)C23CCCCC3)c1	nt	-0.06
Cc1ccc(C(=O)N(C(=O)c2ccc(C)cc2)c2cc(C)on2)cc1	1.4	nt
Nc1ccc(Sc2nnnn2-c2ccccc2)c(Cl)c1	2.6	-0.495
O=C(NC1CC1)c1cc(-c2ccc(Cl)c(Cl)c2)nc2ccccc12	nt	0.87
COc1cc(Cl)c(NS(=O)(=O)c2cc(-c3onc(C)c3C)ccc2OC)c(OC)c1	-0.15	0.205
CCc1ccccc1S(=O)(=O)Cc1ccc(C(=O)NCCc2ccccc2)o1	2	-0.27
CC(=O)OCCN1C(=C/C=C/c2n(CCOC(C)=O)c3cc(Cl)c(Cl)cc3[n+]2CCOC(C)=O)N(CCOC(C)=O)c2cc(Cl)c(Cl)cc21	nt	-0.27
O=C(NC1CCCC1)C1C2C=CC(C2)C1C(=O)N1CCOCC1 (centres undefined)	0.9	nt
O=C(Nc1ccc2c(c1)OCCO2)[C@@H](c1ccccc1)N1Cc2ccccc2C1=O	-0.45	0.175
O=C(Cn1ncc2c(=O)oc3ccccc3c21)Nc1ccc(Oc2ccccc2)cc1	0	-0.175

Carrying on:
canonical_smiles	AID504770	Ba CapD inh
OC1C(c2ccccc2)=NNC1c1ccccc1 (centres undefined)	-0.5	0.445
Fc1ccc(C2CC(c3cccs3)=Nc3ccccc3S2)cc1 (centres undefined)	nt	-1.04
N#Cc1ccc(N2CCCCC2)cc1	0	nt
CN(C)C(C#N)c1cn(C)c2ccccc12 (centres undefined)	-1.85	-2.12
Clc1c(-c2nnc(-c3ccc(N4CCOCC4)cc3)o2)sc2ccccc12	0.15	nt
O=C(CSc1cnccc1C(F)(F)F)NCCN1CCOCC1	nt	-0.01
CCOC(=O)C1=C(CSc2nnc(-c3cccnc3)n2Cc2ccccc2)NC(=O)NC1C (centres undefined)	1.3	nt
COc1ccccc1-n1c(C)coc1=O	-1.05	-0.555
Cc1cccc(-c2nc(CCNC(=O)/C=C/c3ccco3)cs2)c1	0.05	nt
Oc1ccc(Br)cc1C=Nc1ccc2c(c1)OCO2	nt	-0.185
CCCn1c(NC(=O)CCNC(=O)c2ccco2)nc2ccccc21	-0.35	nt
S=C1NN=C(c2ccccc2)CS1	nt	-2.6
CS(=O)(=O)Cc1cccc(C(=O)Oc2ccccc2C#N)c1	-1.1	nt
COc1ccc(NC(=O)CC2SCCNC2=O)cc1 (centres undefined)	-0.95	-0.01
COc1ccc(CC(=O)Nc2oc(-c3ccccc3)c(-c3ccccc3)c2C#N)cc1OC	nt	1.04
Clc1c2ccccc2c(-c2nc(-c3ccc4sc5ccccc5c4c3)c(-c3ccccc3)[nH]2)c2ccccc12	nt	-0.465
Nc1ccccc1N1CCOCC1	-0.3	-0.085
CCCN(CCC)S(=O)(=O)c1ccc(C(=O)SCC(=O)OCC)cc1	nt	-0.525
Cc1ccc(-n2c(O)c(/C=N/c3ncn[nH]3)c3ccccc3c2=O)cc1	-0.45	nt
CC(NC(=S)NC1CCCCC1)C(c1ccccc1)N1CCN(C)CC1 (centres undefined)	-0.1	nt

The listing continues.
canonical_smiles	AID504770	Ba CapD inh
Cc1ccc(O)c(C(CC(=O)NCC2(c3ccccc3)CCOCC2)c2ccccc2)c1 (centres undefined)	0.25	0.125
CCOc1ccc(N/C(SCc2ccc(Cl)cc2)=C(/C#N)C(=O)NCc2ccco2)cc1	nt	0.165
CCN(C(=O)c1ccc(Br)o1)C1CCS(=O)(=O)C1 (centres undefined)	-0.85	nt
Cc1cc(C)n2nc(C(=O)NC34CC5CC(CC(C5)C3)C4)nc2n1	-0.2	nt
CCc1ccc(NC(=O)C2CC(c3cn(CC)nc3C)=NO2)cc1 (centres undefined)	-0.3	0.165
COc1ccccc1NC(=O)CN(C)S(=O)(=O)c1ccc2c(c1)CC(C)N2C(=O)C1CC1 (centres undefined)	-0.3	-0.275
Cc1oc2cc(Br)c(OCC(=O)OC(C)(C)C)cc2c1C(=O)OC(C)C	nt	-1.35
O=C(COc1ccccc1C(=O)O)NC1CCCc2ccccc21 (centres undefined)	0.85	nt
COC(=O)NP(=O)(NNc1ccccc1)OC (centres undefined)	2.05	nt
O=S(=O)(O)c1ccc(Nc2ncnc3cc(Cl)ccc23)cc1	nt	0.34
Cc1cc(C)c(C(=O)Nc2ccc(C)c(C)c2)c(CC(C)(C)C(=O)O)c1	-0.35	-0.375
Fc1c(F)c(N2CCOCC2)c(F)c(F)c1-c1ccccc1	0	0.19
CNC(=O)CSc1nnc(SCCC(=O)O)s1	-0.3	nt
CN(CC(=O)NCc1ccccc1)S(=O)(=O)c1ccc2c(c1)CCC(=O)N2	-0.15	32.3
COc1ccc(-c2csc(/N=C/N(C)C)n2)cc1OC	0.55	nt
CCCc1ccc(C(=O)Nc2cnc3ccccc3c2)cc1	0.7	nt
O=C1CSC(c2cc3c(cc2[N+](=O)[O-])OCO3)N1c1ccc(F)c(Cl)c1 (centres undefined)	nt	0.685
COc1cccc(N=Cc2cc(OC)c(OC)c(OC)c2)c1	nt	0.815
COC(=O)c1sc2cc(Cl)ccc2c1OC(C)C	0	2.23
Cc1cc(Nc2cccc(F)c2)nc(N2CCOCC2)n1	nt	0.385
COc1cc(OC)c(C2Nc3cccc4cccc(c34)N2)c(OC)c1	nt	33.3
COc1ccccc1C1CCN(Cc2ccccc2)CC1	0.55	-0.375

An excerpt of these results, with two lines to a compound.
Value order – AID504770	Ba CapD inh
CCOc1ccc2nc(/N=C/c3ccccc3O)sc2c1
→ -1.05	-1.06
Cc1cc(OCCCC(=O)NC2=NCCS2)ccc1Cl
→ -0.4	nt
COc1ccc(C(=O)OCC(=O)c2cc(OC)ccc2OC)cc1
→ -0.1	nt
Cc1c(CCC(=O)O)c(=O)oc2cc3oc4c(c3cc12)CCCC4
→ 0.05	5.66
